GALR2 ag – GALR2 receptor agonists, primary screen, cell-based | Galanin receptor type 2 (Homo sapiens), O43603 | GALR2-expressing cells, agonist activation read-out | activation, %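 (tested at 5 µM)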 | hit rate 0.48% among 140,000 | AID 803, 2007;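 active means above mean plus 3 SD of all compounds, about 5% in these data, not always enough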;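 further: 0% = vehicle buffer wells and 100% = reference agonist at full effect; tested in CHO reporter cells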
HSV replic up – enhancers of HSV replication in host cells, fold increase, host cell viability | HSV replication augmentation in cells | maximum fold increase | hit rate 0.005% among 220,000 | AID 1956, 2009;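 active means peak rise of 1.5-fold or more in the series; tested in PC3 cells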;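 further: first round at 10 µM; read as green reporter fluorescence; hits show the peak of a series up to 25 µM; 1 = signal of infected wells without compound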
Insulin prom inh – inhibitors of insulin promoter-driven GFP, primary screen, imaging, TRM-6 cells (human fetal islet line), eGFP reporter, cell count. reporter expression induced with tamoxifen. inhibition, % at 2 µM. hit rate 0.9% among 130,000;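 active means inhibition above the mean plus 3 SD, with well images judged a real hit on visual review, cut at about 60% in these data, passing the limit was not always enough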
PKD1 inh – inhibitors of human PKD1 kinase, biochemical, fluorescence polarization. hit rate 0.056% among 200,000. PKD1 kinase fluorescence polarization assay. inhibition, %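 (about 10 µM by stock and volumes)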. Serine/threonine-protein kinase D1 (Homo sapiens), Q15139;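 active means inhibition of 50% or more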;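 further: controls were vehicle for no effect and a reference inhibitor for full effect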
Target sequence (Q15139 whole entry, looked up): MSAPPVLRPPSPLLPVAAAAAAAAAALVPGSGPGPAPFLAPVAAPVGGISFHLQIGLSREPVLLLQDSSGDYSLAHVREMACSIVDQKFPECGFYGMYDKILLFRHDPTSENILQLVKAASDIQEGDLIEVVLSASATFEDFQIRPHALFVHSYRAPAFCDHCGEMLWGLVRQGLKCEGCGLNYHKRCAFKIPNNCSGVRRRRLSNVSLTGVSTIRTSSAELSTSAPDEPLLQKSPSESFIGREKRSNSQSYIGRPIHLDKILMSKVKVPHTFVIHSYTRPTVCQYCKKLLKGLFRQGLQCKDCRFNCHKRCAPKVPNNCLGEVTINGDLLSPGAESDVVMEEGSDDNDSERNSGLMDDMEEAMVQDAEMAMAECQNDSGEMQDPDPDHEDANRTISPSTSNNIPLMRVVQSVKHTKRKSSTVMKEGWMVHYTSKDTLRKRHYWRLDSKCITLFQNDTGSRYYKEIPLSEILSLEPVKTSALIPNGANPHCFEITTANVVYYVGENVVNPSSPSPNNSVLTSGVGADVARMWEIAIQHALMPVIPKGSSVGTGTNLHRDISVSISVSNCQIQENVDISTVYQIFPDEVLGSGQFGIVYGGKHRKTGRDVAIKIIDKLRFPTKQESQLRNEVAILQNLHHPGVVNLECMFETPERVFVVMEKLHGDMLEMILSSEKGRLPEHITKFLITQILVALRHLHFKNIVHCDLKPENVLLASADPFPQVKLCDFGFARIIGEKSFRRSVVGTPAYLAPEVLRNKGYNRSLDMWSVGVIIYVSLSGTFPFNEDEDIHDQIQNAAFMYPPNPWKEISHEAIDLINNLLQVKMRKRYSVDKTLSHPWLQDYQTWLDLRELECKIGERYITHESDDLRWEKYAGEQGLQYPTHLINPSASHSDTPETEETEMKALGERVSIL
RGS16-Gao – modulators of RGS16 binding to Galphao, primary screen, biochemical, human proteins, multiplexed bead flow cytometry | bead-based flow cytometry RGS16-Galphao binding, fluorescence; actives lie on both sides | binding response (% of control), % at 10 µM | hit rate 0.38% among 220,000;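 active means below 25% or above 175%, edge rows of some plates excepted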;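 further: Galphao activated by GDP with aluminum fluoride before binding; 100% = wells without compound and 0% = beads without RGS; some results beyond the cut were filed as inactive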
Insulin prom inh cell count – also measured in Insulin prom inh; calls as there; normalized cell count, %; measured here: cell count, toxicity; reference of the scale not given here;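 cells exposed to compound for 48 h; stained nuclei by imaging scaled within each plate; lower means fewer cells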
HSV replic up primary fold – recorded beside HSV replic up, whose call it bears; fold increase; compound at 10 µM; measured here: primary screen fold increase 10 uM; tested in PC3 cells;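 GFP signal in the first replicate; 1 = infected wells without compound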
Numbers without * were called inactive; i = inactive; . = not tested or not shown; & = joins results of further samples.

Order of results – GALR2 ag | Insulin prom inh cell count | HSV replic up primary fold | PKD1 inh | Insulin prom inh | RGS16-Gao | HSV replic up
- CCOC(=O)c1ccc(N2C(=O)C=CC2=O)cc1
  -1.2 | 134.6 | 0.83 | -2.0 | -20.6 | 94.0 | i
- CCOc1ccc(-c2nnn(CC(=O)NCCc3c[nH]c4ccccc34)n2)cc1
  -2.0 | 95.7 | 0.73 | 4.9 | 59.4 | 100.2 | i
- O=C(NN=C1CCCCC1)NC1CCCCC1
  -0.8 | . | 0.93 | -1.9 | . | 102.0 | i
- CCOC(=O)N1CCN(C(=S)Nc2ccc3nc(N4CCN(CC)CC4)cc(C)c3c2)CC1
  -2.2 | 111.0 | 0.7 | -0.4 | 27.6 | 82.8 | i
- N#CCCN(C(=O)COc1ccc(C#N)cc1)c1ccc(F)cc1
  . | . | 1.05 | 1.1 | . | 102.8 | i
- COc1ccc(NC(=O)/C(Cl)=C(/Cl)S(=O)Cc2ccc(C)cc2)cn1 (stereo not given)
  -2.4 | 1.2 | 0.35 | -2.9 | -316.7 | 88.3 | i
- Cc1ccc(-n2c(SCC(=O)OC(C)C)nnc2-c2ccccn2)cc1
  -1.4 | 73.7 | 1.2 | -7.3 | 21.2 | 88.4 | i
- COc1ccccc1Nc1nc(C)cc(C)c1C(N)=O
  -1.9 | 19.2 | 1.01 | -8.0 | -148.3 | 115.3 | i
- Nc1ncc(-n2cncn2)c(-c2ccc(Cl)cc2)n1
  . | 129.4 | 1.03 | 4.7 | -20.0 | 99.6 | i
- Cc1ccc(NC(=O)C2CC(=O)N(CCc3ccccc3)C2)c(C)c1 (stereo not given)
  . | . | 0.97 | 6.1 | . | 104.3 | i
- O=C(CC(Nc1ccccc1Cl)C(=O)O)c1ccccc1 (stereo not given)
  . | 153.3 | 0.93 | -2.6 | 11.1 | 104.8 | i
- CN(CC(O)COc1ccc(S(=O)(=O)N2CCOCC2)cc1)C1CCCCC1 (stereo not given)
  -0.1 | 150.0 | 0.81 | -2.8 | -8.6 | 104.1 | i
- O=C(Cn1ccsc1=NC(=O)c1ccco1)c1ccccc1
  -0.8 | . | 0.99 | -6.5 | . | 100.2 | i
- N#C/C(=C\c1ccccc1[N+](=O)[O-])C(=O)NCc1ccccc1
  . | . | 0.86 | . | . | 100.1 | i
- COc1ccc(NCc2cc3ccccc3[nH]c2=O)cc1
  -0.9 | 147.3 | 1.01 | 3.9 | 7.7 | 102.1 | i
- COc1ccc(NC(=O)CC2SC(=Nc3ccccc3)NC2=O)c(OC)c1 (stereo not given)
  -2.7 | . | 0.99 | -18.0 | . | 92.9 | i
- CCS(=O)(=O)N1CCN(S(=O)(=O)c2ccccc2)CC1
  -1.5 | 65.9 | 0.89 | 0.9 | 7.4 | 81.8 | i
- CC(=O)C1C(c2ccc(F)c(F)c2)NC(=O)NC1(O)C(F)(F)F (stereo not given)
  -1.5 | 134.4 | 1.11 | -6.8 | 64.3 | 96.6 | i
- O=C(CCSc1ccccc1)NC1CCCC1
  -1.8 | . | 1.08 | -4.4 | . | 84.4 | i
- CC(=O)c1csc(CS(=O)(=O)c2ccccn2)n1
  . | . | 0.88 | . | . | 94.6 | i
- O=C(CCCc1nc(-c2ccc(Cl)cc2)no1)Nc1cccnc1
  -2.8 | 130.4 | 0.83 | -0.8 | -110.8 | 107.2 | i
- O=C(Cn1cc2c(n1)CCCC2)NCCCN1CCN(c2ccccc2F)CC1
  -2.3 | . | 0.78 | 15.3 | . | 104.7 | i
- Cn1c(CCNC(=O)c2ccccc2Cl)n[nH]c1=S
  -2.0 | 103.1 | 0.92 | 3.5 | 17.9 | 66.3 | i
- Cc1cccc(C2c3[nH]c4ccccc4c3CCN2C(=O)c2ccc(=O)[nH]c2)n1 (stereo not given)
  . | . | 0.88 | 1.6 | . | 101.7 | i
- CC(=O)Nc1nc2ccccc2n1CCN1CCOCC1
  -0.8 | 44.8 | 0.67 | -3.8 | -2.8 | 102.9 | i
- C=CCn1c(CNC(=O)c2ccccc2C)nnc1SCC(=O)NC1CCCC1
  -2.3 | 50.8 | 0.94 | -16.8 | -304.6 | 102.7 | i
- CCOC(=O)Cn1nnnc1C(CC)N(Cc1cccs1)Cc1cc2ccc(OC)cc2[nH]c1=O (stereo not given)
  1.9 | 83.2 | 1.11 | 2.8 | -15.4 | 103.8 | i
- O=C(NCCN1C(=O)S/C(=C\c2ccc(OC(F)F)cc2)C1=O)[C@@H]1CCCN1C(=O)c1cccs1
  1.3 | 94.9 | 0.99 | -0.2 | -30.6 | 107.5 | i
- COc1ccc(C(=O)Nc2cc(Cl)ccc2C(=O)O)cc1
  . | . | 0.99 | -3.7 | . | 96.8 | i
- COc1ccc(NS(=O)(=O)c2cccc(Cl)c2)cc1S(=O)(=O)N1CCCCC1
  -0.1 | 92.0 | 1.01 | -11.5 | 10.3 | 91.7 | i
- CCC(COC(=O)Nc1ccccc1)NC(=O)OC(C)C (stereo not given)
  . | . | 0.93 | -8.2 | . | 101.9 | i
- CC1CCN(C(=O)CSc2nnc(CSc3ncccn3)n2C)CC1
  -0.6 | 92.8 | 1.15 | -7.5 | -15.2 | 99.2 | i
- O=C(Nc1ccc(N2CCOCC2)c(Cl)c1)c1ccc2c(c1)OCCO2
  . | 76.1 | 0.94 | 2.5 | -18.5 | 97.2 | i
- C=CCN1C(=O)/C(=C2/Sc3ccc(OC)cc3N2C)SC1=NCc1ccccc1
  . | . | 1.02 | 4.6 | . | 101.9 | i
- O=S(=O)(NC1CCCCC1)c1ccc(Cl)nc1
  -1.2 | 110.0 | 0.9 | -4.4 | 23.3 | 89.8 | i
- CSc1ccccc1-c1nnc(-c2ccccc2)o1
  -2.1 | 43.1 | 0.93 | 2.6 | -9.4 | 97.2 | i
- O=C(CC12CC3CC(CC(C3)C1)C2)NC(=S)NCc1ccccc1
  1.9 | . | 1.02 | -4.4 | . | 97.7 | i
- Cc1ccc(NC(=O)CSc2n[nH]c(-c3ccncc3)n2)cc1C
  -0.3 | 104.5 | 0.96 | -8.0 | -3.7 | 55.3 | i
- CC(C)S(=O)(=O)c1csc(C(=O)Nc2ccc(F)cc2)c1N
  . | . | 0.86 | . | . | 109.1 | i
- Cc1cc(SCC(=O)O)nc2ccccc12
  . | . | 1.01&1.05 | -10.4 | . | 96.3&93.3 | i
- CCCc1ccc(OCc2ccc(C(=O)N3CCN(c4ccccn4)CC3)o2)c(OC)c1
  -1.8 | 102.0 | 0.79 | 1.6 | -40.0 | 101.7 | i
- Cc1ccc(N2C(=O)CC(Sc3ncn[nH]3)C2=O)cc1 (stereo not given)
  -2.4 | 193.1 | 1.04 | -14.5 | -20.0 | 102.1 | i
- COc1ccc(N2CCSC2C(=O)NN)cc1 (stereo not given)
  -1.1 | 117.5 | 0.993 | -6.7 | -121.6 | 100.6 | i
- Cc1ccc(C(=O)N/C(=C/c2ccco2)C(=O)Nc2cccc(C)c2)cc1
  -1.6 | 78.3 | 0.95 | -4.0 | 57.1 | 101.1 | i
- Cc1ccc2c(c1)c(C)c(C)n2CC(O)CN1CCOCC1 (stereo not given)
  -0.1 | 61.3 | 1.19 | -6.9 | i | 61.0 | i
- CCC(C)[C@H](NC(=O)NCC1CCCO1)C(=O)OC (stereo not given in full)
  -2.7 | . | 1.46 | -17.7 | . | 105.0 | i
- Cc1ccc(NC(=O)c2ccc(CNc3c(N4CCC(C)CC4)c(=O)c3=O)cc2)cc1
  . | . | 0.98 | . | . | 105.6 | i
- O=C(O)C1CC(c2ccccc2)=NO1 (stereo not given)
  -2.0 | . | 0.82 | -5.7 | . | 85.0 | i
- CCN(CC)CCCN1C(=O)C(=O)/C(=C(/O)c2ccc3c(c2)OCCO3)C1c1ccco1 (stereo not given)
  -0.5 | 127.8 | 0.76 | -3.9 | 5.9 | 103.3 | i
- CC1CC(C(F)(F)F)n2nc(C(=O)O)cc2N1 (stereo not given)
  0.4 | 117.4 | 0.91 | -5.6 | 8.3 | 88.8 | i
- Cn1c(SCC#N)nnc1-c1cccnc1
  -0.6 | 186.4 | 0.89 | -10.8 | 0.0 | 102.7 | i
- CCOC(=O)C1=C(N)Oc2c(c(=O)[nH]c3ccccc23)C1c1ccccc1 (stereo not given)
  1.9 | 157.7 | 0.93 | -5.6 | -10.0 | 102.9 | i
- Cc1cc(C)n(-c2nc(Nc3ccccc3C(F)(F)F)nc(-n3nc(C)cc3C)n2)n1
  -1.5 | . | 0.54 | 8.8 | . | 101.0 | i
- CC(=O)N(c1ccccc1C)S(=O)(=O)c1ccc(Cl)cc1
  . | . | 0.97 | -1.7 | . | 101.2 | i
- COc1ccc(Cl)cc1NC(=S)N(Cc1ccccc1C)CC1CCC(C(=O)O)CC1 (stereo not given)
  . | . | 1.03 | -2.8 | . | 94.7 | i
- CCOC(=O)N1CCC(NC(=O)Cn2c3ccccc3c3cn[nH]c(=O)c32)CC1
  -1.6 | 103.2 | 1.04 | 2.5 | -26.3 | 117.8 | i
- CCOc1ncccc1C(=O)Nc1nnc(C(CC)CC)s1
  . | . | 0.93 | -2.7 | . | 98.3 | i
- Cc1cc(C)n(-c2nnc(C)n2NC(=O)c2cccc(Cl)c2)n1
  -1.4 | 113.0 | 1.05 | -2.9 | -100.0 | 41.9 | i
- CN1CC(=O)N(CC(=O)Nc2ccc(F)cc2)c2ccccc2C1=O
  -0.1 | 62.5 | 1.05 | -8.0 | -21.2 | 87.2 | i
- O=C(Nc1ccc(-n2nncc2-c2ccco2)cc1)c1cccc(F)c1
  -0.4 | 126.6 | . | 9.8 | -54.5 | 99.1 | .

(list continues)
Order of results – GALR2 ag | Insulin prom inh cell count | HSV replic up primary fold | PKD1 inh | Insulin prom inh | RGS16-Gao | HSV replic up
- COc1ccc(Cl)cc1NC(=O)CN(c1ccccc1)S(=O)(=O)N(C)C
  -0.7 | 128.9 | 0.94 | 3.0 | 12.8 | 100.0 | i
- Cc1csc(SCC(=O)N2CCN(S(=O)(=O)c3ccc(Cl)cc3)CC2)n1
  -1.8 | 80.4 | . | 3.7 | -28.6 | 99.6 | .
- CCNC(=S)NNC(=O)c1csc2c1CCC(C)C2 (stereo not given)
  -1.7 | 38.0 | 0.997 | -8.5 | -64.9 | 108.0 | i
- COC(=O)CN1C(c2ccccc2O)Nc2ccc(Br)cc2C1c1ccccc1 (stereo not given)
  -0.4 | . | 0.93 | -6.3 | . | 107.0 | i
- CN(CCC#N)C(=O)CSc1nnc(-c2ccco2)n1N
  . | 60.1 | 0.96 | 4.4 | 25.0 | 105.8 | i
- Nc1nc(-c2c(Cl)cccc2Cl)no1
  . | . | 1.13 | . | . | 88.9 | i
- COC(=O)c1ccc(OCC(O)Cn2nnc3ccccc32)cc1 (stereo not given)
  0.1 | 134.9 | 1.12 | -11.5 | -14.7 | 109.7 | i
- CC(=O)c1cccc(NC(=O)Cn2cc3c(n2)CCCC3)c1
  -1.3 | . | 1 | 1.2 | . | 126.5 | i
- O=C(NC(Cc1c[nH]c2ccccc12)C(=O)OCC(=O)c1cccc2ccccc12)c1cccs1 (stereo not given)
  -1.0 | . | 0.95 | -9.5 | . | 107.6 | i
- O=C(N/N=C/c1ccc(O)cc1)c1csc2c1CCCC2
  -0.6 | . | 0.83 | 8.1 | . | 103.3 | i
- CCCOc1ccccc1NC(=O)c1ccc([N+](=O)[O-])cc1
  . | 109.2 | 0.94 | 0.6 | 50.0 | 109.1 | i

Structural class: the entries above with a furan ring, fused or not.
Order of results – GALR2 ag | Insulin prom inh cell count | HSV replic up primary fold | PKD1 inh | Insulin prom inh | RGS16-Gao | HSV replic up
- O=C(Cn1ccsc1=NC(=O)c1ccco1)c1ccccc1
  -0.8 | . | 0.99 | -6.5 | . | 100.2 | i
- CCCc1ccc(OCc2ccc(C(=O)N3CCN(c4ccccn4)CC3)o2)c(OC)c1
  -1.8 | 102.0 | 0.79 | 1.6 | -40.0 | 101.7 | i
- Cc1ccc(C(=O)N/C(=C/c2ccco2)C(=O)Nc2cccc(C)c2)cc1
  -1.6 | 78.3 | 0.95 | -4.0 | 57.1 | 101.1 | i
- CCN(CC)CCCN1C(=O)C(=O)/C(=C(/O)c2ccc3c(c2)OCCO3)C1c1ccco1 (stereo not given)
  -0.5 | 127.8 | 0.76 | -3.9 | 5.9 | 103.3 | i
- O=C(Nc1ccc(-n2nncc2-c2ccco2)cc1)c1cccc(F)c1
  -0.4 | 126.6 | . | 9.8 | -54.5 | 99.1 | .
- CN(CCC#N)C(=O)CSc1nnc(-c2ccco2)n1N
  . | 60.1 | 0.96 | 4.4 | 25.0 | 105.8 | i

Screening data from PubChem BioAssay.
